Screening results as filed in PubChem.
HPGD inh – inhibitors of human 15-hydroxyprostaglandin dehydrogenase (HPGD); P15428; purified HPGD, NADH fluorescence kinetic, PGE2 substrate; Potency, µM, for inactives: top-dose activity change, negative = inhibition, usual class: inhibitors; actives 4.3% (n = 150,000); AID 894; active = well fitted inhibition curve with a large enough effect (not every such curve was filed as active); inconclusive = small, poorly fitted or top-dose-only effect, or another doubt; inactive = no such curve, though single readings can be large or run the other way;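 further: top concentration of the series not given in the record; plate controls included wells without enzyme; inactives centre near -10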
Target sequence (P15428 whole entry, looked up): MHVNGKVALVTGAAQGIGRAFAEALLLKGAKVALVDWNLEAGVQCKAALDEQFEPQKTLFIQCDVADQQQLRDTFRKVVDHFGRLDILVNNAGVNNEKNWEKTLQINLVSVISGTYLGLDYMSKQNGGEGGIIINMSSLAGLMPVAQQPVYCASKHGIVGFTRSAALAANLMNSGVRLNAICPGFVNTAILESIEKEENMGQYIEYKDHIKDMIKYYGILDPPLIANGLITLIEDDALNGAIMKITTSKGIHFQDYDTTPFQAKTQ
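20 nM HPGD preincubated 15 min at room temperature with compound in 50 mM Tris-HCl pH 8, 0.01% Tween 20. Started with 1 mM NAD+ and 30 uM prostaglandin E2; NADH fluorescence (360/450 nm) read 5 times over 30-s intervals, last minus first.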
* hit, by the source's call; ? = inconclusive. On the % scale 0 is the no-effect control and ±100 the full control effect; potency means the concentration at half of the fitted maximal effect.

structure,HPGD inh
COc1cc(C2NC(C(=O)O)Cc3c2[nH]c2ccccc32)cc(OC)c1OC (configuration not stated),-1.9%
Fc1ccc(CN(C2=NCCN2)c2c(Cl)cccc2Cl)cc1,-9.2%
COc1ccc(NC(=O)CN(C2CCCCC2)S(C)(=O)=O)cc1Cl,-10.7%
O=C(c1noc2c1CCCC2)N1CCN(c2ccccc2)CC1,-7.6%
Cc1cc(NC(=O)COC(=O)COc2ccc(Cl)cc2C)c([N+](=O)[O-])cc1C,-9.4%
CSc1nc(C)cc(Nc2ccc(O)c(CN3CCCCC3)c2)n1,3.4%
CC(C)Cc1ccc(S(=O)(=O)N2CCOCC2)cc1,-11.5%
O=C(O)C1(Nc2ccc(Cl)cc2)CCCC1,-4.8%
O=C(COc1ccccc1)N1CCN(c2ncnc3c2cnn3-c2ccccc2)CC1,-12.5%
COCCn1c(SCCN2CCOCC2)nc2c1c(=O)[nH]c(=O)n2C,?
OC(CSc1c(Cl)cccc1Cl)CN1CCN(c2ccccc2F)CC1 (configuration not stated),-5.7%
O=C(OCn1ncc(Cl)c(Cl)c1=O)c1cccc(C(F)(F)F)c1,17.8µM*
C[C@H](C(=O)O)c1n[nH]c(=O)c2ccccc12,-7.1%
c1ccc2c(Cn3ccnc3)c[nH]c2c1,4.7%
COCC(=O)N1CCC2(CC1)CN(C(=O)Nc1ccc(OC)cc1)C2,-7.4%
Cc1c(C)c2c(c(C)c1O)CCC(C)(CCCC(C)CCCC(C)CCCC(C)C)O2 (configuration not stated),-1.3%
NC(=O)c1cc2n(n1)C(C(F)(F)F)CC(c1ccco1)N2 (configuration not stated),-11.0%
Cn1c(=O)n(CCc2ccccc2)c(=O)c2c1ncn2Cc1ccccc1,-12.6%
CCCCc1ccc(NC(=S)Nc2ccc(Cl)c(S(=O)(=O)N(C)C)c2)cc1,-11.6%
COCCn1c(=O)c(-c2ccc(OC)cc2)nc2cnc(N3CCNCC3)nc21,?
CC1(CCc2ccccc2)NC(=S)N(c2ccccc2)N1 (configuration not stated),39.8µM*
C=CCNC(=O)c1ccccc1NC(=O)c1cccc2ccccc12,-19.2%
COc1cccc(C2CC(c3ccc(Cl)cc3Cl)n3nc(N)nc3N2)c1 (configuration not stated),-9.4%
Cc1nc(=S)n(-c2ccccc2)[nH]1,-0.4%
Cn1nccc1C(=O)c1ccc(Cl)cc1,-20.6%
O=C(Cc1ccccc1)NN1C(=O)C2C3C=CC(C3)[C@@H]2C1=O (some centres not stated),-0.5%
COc1ccc(/C=C/C(=O)c2cc(O)ccc2O)cc1,?
CCC(C)n1c(-c2ccco2)nc2nc3ccccc3nc21 (configuration not stated),?
CCOc1ccc(NC(=O)CN2CCN(CC(=O)Nc3cccc(F)c3)CC2)cc1,7.5%
COc1ccc(OCc2nnc3n2N=C(c2ccc(C)cc2)CS3)cc1,-21.0%

HPGD inh, entries above that show a hit
structure,HPGD inh
O=C(OCn1ncc(Cl)c(Cl)c1=O)c1cccc(C(F)(F)F)c1,17.8µM*
CC1(CCc2ccccc2)NC(=S)N(c2ccccc2)N1 (configuration not stated),39.8µM*

(list continues)
structure,HPGD inh
CCOC(=O)c1cc2occc2n1Cc1ccc(F)cc1,-16.1%
O=[N+]([O-])c1ccccc1/C=C/C=N/n1c(-c2ccc(Cl)cc2)n[nH]c1=S,3.16µM*
CCCSC1=N/C(=C\c2ccc3c(c2)OCO3)C(=O)S1,-12.5%
CC1C(=O)OC2C(O)C34C5CC(C(C)(C)C)C36C(OC(=O)C6O)OC4(C(=O)O5)C12O (configuration not stated),-3.2%
CCC1(C)CC(c2nc(-c3ccc(OC)cc3)cs2)CCS1 (configuration not stated),-9.1%
Cc1nc(-c2ccccc2O)n(S(=O)(=O)N(C)C)n1,-18.8%
COc1ccc(NC(=O)CSc2nccc(C)n2)cc1,-3.1%
CC(=O)c1cccc(NC(=O)CN(Cc2ccccc2)S(C)(=O)=O)c1,-10.0%
Cc1cccc(-c2nnc(SCC3CNC(=O)O3)n2-c2ccc(Cl)cc2)c1 (configuration not stated),-18.4%
COc1ccc(C(C(C(=O)c2ccco2)N2CCOCC2)N2CCOCC2)cc1 (configuration not stated),?
COC(=O)c1sc(N)c(C(=O)OC)c1COC(=O)C1CC(=O)N(Cc2ccco2)C1 (configuration not stated),?
COC(=O)CC1Sc2ccccc2NC1=O (configuration not stated),-8.0%
COCCCNC(NC(=O)c1ccc(C)cc1)C(Cl)(Cl)Cl (configuration not stated),-1.0%
CC1=NNC(=O)C1CCC(=O)N/N=C\c1ccccc1[N+](=O)[O-] (configuration not stated),-14.4%
CN(C)C(=O)CSc1nnc(-c2cc(-c3cccs3)nc3ccccc23)o1,?
CC(=O)c1cc(C)ccc1OC(=O)c1cccc2nc(C)oc12,-15.3%
CCS(=O)(=O)N1Cc2ccccc2CC1C(=O)Nc1nnc(SCc2c(Cl)cccc2Cl)s1 (configuration not stated),?
Cc1nc2sc(C(c3cccc(F)c3)N3CCN(C(=O)c4ccco4)CC3)c(O)n2n1 (configuration not stated),-4.2%
Cn1c(=O)c2c(-c3ccccc3)n(C3CCCCC3)cc2n(C)c1=O,-7.4%
COc1ccc(C(=O)NCc2n[nH]c(=S)n2-c2ccccc2)cc1OC,-23.2%
Cc1ccc(/C=N/n2cnc3sc4c(c3c2=O)CCCC4)o1,-9.8%
Cc1nn(-c2ccccc2)c(C)c1NC(=O)COc1ccc(C#N)cc1,-8.4%
O=C(OCC1OC(n2cnc3c(N(C(=O)c4ccccc4)C(=O)c4ccccc4)ncnc32)C(O)C1F)c1ccccc1 (configuration not stated),-7.0%
O=C(Cn1nnc(-c2ccncc2)n1)Nc1ccc2c(c1)CCC2,-4.2%
CN(C)CCOC(=O)c1ccc(N)cc1,0.7%
Cc1c(NC(=O)/C=C/c2cn(-c3ccccc3)nc2-c2ccc(F)cc2)c(=O)n(-c2ccccc2)n1C,-6.7%
COC(=O)[C@H](C)NC(=O)Nc1ccc(Oc2ccccc2)cc1,-16.6%
COCc1cc(C)nc(OCC(=O)N/N=C/c2ccc(-c3cccc([N+](=O)[O-])c3)o2)c1C#N,-15.2%
Cc1c(Br)cc(C(=O)NC2CCCCC2)c(C)c1C,-12.6%
COc1ccc(-c2noc(CCC(=O)Nc3ccc4c(c3)OCCO4)n2)cc1,-25.5%
CCOC(=O)c1c(C#N)cnn1-c1ccc(C)cc1,-3.1%
CCN(CC)S(=O)(=O)c1ccc(NC(=O)C2c3ccccc3Oc3ccccc32)cc1,-5.1%
COc1ccc(C2=NOC(Cn3c(Cc4ccc(Cl)cc4)nc4c3c(=O)n(C)c(=O)n4C)C2)cc1 (configuration not stated),?
C#C[C@@]1(O)CC[C@@H]2[C@@H]3CCC4=C(CCC(=O)C4)[C@H]3CC[C@]21C,-3.2%
COC(=O)/C=C/c1ccc(OC(=O)c2ccncc2)cc1,-3.0%
CCOC(=O)N1CCC(NC(=O)c2cc3c(-c4ccccc4F)nn(C)c3s2)CC1,-71.0%
O=C1NC(=S)N/C1=C/c1ccc(-c2c(Br)cc([N+](=O)[O-])cc2Br)o1,?
Cc1ccc(-c2cc(C(F)F)n3ncc(C(=O)Nc4c(C)nn(Cc5ccccc5Cl)c4C)c3n2)cc1,-10.5%
O=C(NNC(=O)c1cccnc1)Nc1ccc([N+](=O)[O-])cc1,-23.0%
CCc1nc2sc3c(c2c(=O)n1NC(=O)CCl)CCCC3,-4.2%
CS(=O)(=O)N(CC(=O)Nc1ccc2c(c1)OCO2)Cc1ccccc1,-3.9%
COc1ccc(-c2c(C)nn3c(N4CCC(C(=O)NCCN(C)C)CC4)cc(C)nc23)cc1OC,-11.1%
O=C(CN1CCN(C(=O)c2cccc(F)c2)CC1)NC1CCCCC1,0.3%
Cc1ccc(SC/C(O)=C(\C#N)c2nc3ccccc3s2)cc1,-17.4%
COc1ccccc1Nc1nc(N)nc(-c2oc3ccccc3c2C)n1,?
CCCCC1(Cc2cccc([N+](=O)[O-])c2)C(=O)N(c2ccccc2)N(c2ccccc2)C1=O,-0.6%
CS/C(=N\S(=O)(=O)c1ccc(N)cc1)NS(=O)(=O)c1cccs1,-7.3%
Cc1cc(C)cc(N2CN=c3s/c(=C\c4ccco4)c(=O)n3C2)c1,-15.4%
CC1CC(C(F)(F)C(F)(F)F)n2nc(C(=O)O)cc2N1 (configuration not stated),-12.3%
Fc1ccc(Cn2c(-c3cscn3)nc3ccccc32)c(Cl)c1,-11.2%
COc1ccc(OC)c(N(CC(N)=O)S(=O)(=O)c2ccc(OC)c(OC)c2)c1,-10.3%
COCCCNC(=O)C1CCCCN1S(=O)(=O)c1ccc(F)cc1 (configuration not stated),1.4%
Cc1ccc(-c2c3c(nc4sc(C(N)=O)c(N)c24)CCCC3)o1,?
CC1=CCC(C(=O)O)(C(=O)N/N=C/c2cccs2)C(c2ccc([N+](=O)[O-])cc2)C1 (configuration not stated),-11.7%
O=C(Cc1ccc(Cl)cc1)Nc1ccc(-c2cc3ccccc3oc2=O)c(Cl)c1,?
CN1CC(c2ccccc2)C2(COc3ccccc3C2=O)C12C(=O)Nc1ccccc12 (configuration not stated),-2.9%
O=C(Nc1ccc2c(c1)OCCO2)NC1(C(F)(F)F)Oc2ccccc2O1,-9.9%
O=C(O)c1ccc2nc(-c3ccccc3)sc2c1,-14.9%
O=C(NCCCN1CCOCC1)c1cnn2c(-c3ccccc3)cc(-c3ccccc3)nc12,?
COc1cccc2c1OC(=O)CC2c1ccc(C)cc1 (configuration not stated),?

Further compounds
structure,HPGD inh
C=CCn1c(=O)/c(=C/c2cc(OC)c(OC)c(OC)c2)s/c1=C(/C#N)c1nc2ccccc2n1C,-26.1%
C/C(=N\NC(=O)c1cc(-c2cccc([N+](=O)[O-])c2)n[nH]1)c1ccccc1O,-21.1%
COc1ccc(-n2c(SCC#N)nnc2-c2ccc(NS(=O)(=O)c3ccc(C)cc3)cc2)cc1,14.1µM*
O=C(NCc1ccc2c(c1)OCO2)C1CCN(Cc2cnn(-c3ccccc3)c2-n2cccc2)CC1,-2.7%
Cc1ccc(-c2nnc(N(C)C(=O)c3cccnc3)s2)cc1,-14.0%
O=C(CSc1nnnn1C1CCCC1)N1CCN(C(=O)c2ccco2)CC1,-1.8%
O=C(O)c1cccc(COCC(F)(F)C(F)F)c1,-12.2%
O=C(NC(=S)N(Cc1ccccc1)c1ccccn1)C1CCCCC1,?
Cc1cc2ccccc2n1CCNC(=O)Cc1cccc2ccccc12,-28.9%
N#CCCn1c(SCC(=O)N2CCN(S(=O)(=O)c3ccccc3)CC2)nc2ccccc21,-3.9%
CCCCCCC(=O)Nc1nc(C)c(-c2csc(Nc3cc(OC)ccc3OC)n2)s1,-13.1%
COC(=O)c1ccsc1NC(=O)CSc1nnnn1-c1ccccc1SC,-24.5%
Cc1ccccc1-c1nc(NCc2cccnc2)c2ccccc2n1,-23.8%
CC(C)CCNC(=O)CN(C(=O)Cn1nnc(-c2ccccc2F)n1)c1cccc2c1CCCC2,-16.4%
Cc1ccc(NC(=O)CN2C(=O)CSC2=O)cc1,-15.4%
COc1ccc2oc(=O)c(C(=O)N3CCN(c4ccccc4)CC3)cc2c1,-13.3%
O=C1c2ccccc2S(=O)(=O)N1CC1CC(c2ccccc2)=NO1 (configuration not stated),-15.5%
C=CCn1c(SCC(=O)NCCC2=CCCCC2)nc2ccc(Cl)cc2c1=O,-3.3%
CCOc1ccc(C2C(C(=O)OC)=C(C)N=C3SCCC(=O)N32)cc1OCC (configuration not stated),-3.5%
c1cc(NNc2cccc(-c3nn[nH]n3)c2)cc(-c2nn[nH]n2)c1,-4.9%
COC(=O)C1=C(CSc2nncn2C)NC(=O)NC1c1ccc(F)cc1 (configuration not stated),-1.8%
COc1ccc(-c2c(C)n([O-])c3c([n+]2=O)CCCC3)c(OC)c1,-4.4%
CCCOC(=O)Nc1ccc(S(=O)(=O)Nn2cnnc2)cc1,-5.2%
Cc1cc(SCC(=O)Nc2ncc(Cl)cc2Cl)nc2ccccc12,-9.8%
CN(C)c1ccc(NC(=O)N2CCOCC2)cc1,-5.3%
COC(=O)Cn1c(C)nc(=O)c(-c2ccccc2)c1C,-8.5%
Cc1cc(C)c(C(=O)Nc2ccc(S(=O)(=O)Nc3onc(C)c3C)cc2)c(C)c1,-20.8%
Cc1ccccc1Nc1cc(=O)oc2ccccc12,-19.7%
COc1ccc2nc(C)c3c(c2c1)OC(C)C3 (configuration not stated),-14.6%
Cc1ccc(-c2cc(-c3ccccc3C)[nH]n2)c(O)c1,10µM*
COc1cccc(-c2nnc(NC(=O)c3ccc(Cl)s3)o2)c1,?
S=C1NCCOCCOCCOCCOCCN1,1.9%
CCOC(=O)c1c(NC(=S)Nc2ccc(OC)cc2)sc2c1CCCCC2,-11.3%
COc1cccc(-c2nnc3sc(-c4ccc(C)cc4)nn23)c1,-14.8%
COc1ccc2[nH]c3c(N4CCC(O)(c5cccc(C(F)(F)F)c5)CC4)ncnc3c2c1,?
O=C(O)CC/C(=C\c1ccc(Cl)c([N+](=O)[O-])c1)c1nc2ccccc2s1,-23.4%
CCCCCC(=O)N/N=C/c1ccc(N(C)C)cc1,?
CCOC(=O)C1CCCN(C(=O)C2CCN(S(=O)(=O)c3cnc[nH]3)CC2)C1 (configuration not stated),2.0%

The list is partial. The share of hits here may be higher or lower than overall.
